Cruzain Triton: qHTS Assay for Promiscuous and Specific Inhibitors of Cruzain (with detergent) | Cruzipain (Trypanosoma cruzi), P25779 | purified cruzain, Z-FR-AMC fluorescence, 0.01% Triton | Potency, µM, for inactives: max response, negative = inhibition, actives largely listed as inhibitors | 200,000 tested, 0.43% active; active = well fitted curve in the direction sought with a large enough effect; inconclusive = small, poorly fitted or top-dose-only effect, or another doubt; inactive = no such curve, though single readings can be large; an effect the other way counts as inactive or inconclusive;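 note: plate controls were neutral wells for no effect and buffer without enzyme for full effect; nearly all actives have a fitted effect of over 40% in size; top concentration of the series not given in the record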
Target sequence (P25779 123-467 limits assumed): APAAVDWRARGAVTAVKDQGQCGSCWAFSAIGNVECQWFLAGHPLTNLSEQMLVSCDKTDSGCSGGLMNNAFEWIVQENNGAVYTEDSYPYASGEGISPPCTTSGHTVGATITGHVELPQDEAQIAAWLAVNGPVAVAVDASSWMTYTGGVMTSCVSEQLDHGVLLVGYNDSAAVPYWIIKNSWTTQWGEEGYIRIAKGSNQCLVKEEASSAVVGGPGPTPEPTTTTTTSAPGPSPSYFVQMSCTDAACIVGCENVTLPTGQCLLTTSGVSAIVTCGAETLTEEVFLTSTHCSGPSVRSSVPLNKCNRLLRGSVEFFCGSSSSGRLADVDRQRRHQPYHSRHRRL
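In this qHTS format, compounds are incubated with 1.5 nM cruzain for 15 min at room temperature before 2 uM Z-FR-AMC is added. Release of AMC is followed at 360/450 nm, and progress is taken as the 60 s fluorescence difference.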
SARS PLP yeast: qHTS of Yeast-based Assay for SARS-CoV PLP | S. cerevisiae expressing SARS-CoV PLpro, growth rescue; control for the full effect not named in the record | Potency, µM (titrated, usually from 32.9 µM), inactives show top-dose activity, positive = growth rescue | 330,000 tested, 0.19% active; note: 0% is about no effect; nearly all actives have a fitted effect of over 55% in size; growth read by luminescence after 48 h
StopGo reporter: High Throughput Screening for Foot and Mouth Disease Virus Antivirals. human cells with a luciferase reporter of 2A StopGo recoding; control for the full effect not named in the record. Potency, µM (titrated, usually from 57.9 µM), inactives show at the highest dose signal change, negative = less light. 410,000 tested, 1.2% active; active = well fitted falling curve with a large enough effect; inconclusive = small, poorly fitted or top-dose-only effect; inactive = no such curve, though single readings can be large or run the other way; tested in HEK293T cells; note: % is set by controls: 0 for no effect and ±100 for the full control effect; nearly all actives have a fitted effect of over 45% in size; luciferase light after 4 h
Marburg entry inh: qHTS for inhibitors of binding or entry into cells for Marburg Virus | Potency, µM (highest dose often 37.8 µM), inactives show at the highest dose activity change, negative = inhibition, actives largely listed as inhibitors | AID 540276, 2011 | 300,000 tested, 1.8% active | Marburg virus pseudotyped entry inhibition, cell reporter; control for the full effect not named in the record; about a third of the inactives were read at about 46 µM; active = well fitted inhibition curve with a large enough effect; inconclusive = small, poorly fitted or top-dose-only effect, or effect the other way; inactive = flat fitted curve, though single readings scatter; tested in HEK293 cells; about a fifth of its hits are not listed in these tables; note: % is set by controls: 0 for no effect and ±100 for the full control effect; luciferase read-out
Cruzain inh noDet: qHTS Assay for Promiscuous and Specific Inhibitors of Cruzain (without detergent) | Cruzipain (Trypanosoma cruzi), P25779 | 200,000 tested, 2.3% active | Potency, µM, without a hit: max response, negative = inhibition, most hits filed as inhibitors | purified cruzain, Z-FR-AMC fluorescence, no detergent; active = well fitted curve in the direction sought with a large enough effect; inconclusive = small, poorly fitted or top-dose-only effect, or another doubt; inactive = no such curve, though single readings can be large; an effect the other way counts as inactive or inconclusive;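 note: plate controls were enzyme without inhibitor for no effect and buffer without enzyme for full effect; nearly all actives have a fitted effect of over 40% in size; top concentration of the series not given in the record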
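Purified cruzain at 1.5 nM, pre-incubated 15 min with compound at room temperature in 100 mM sodium acetate pH 5.5, 5 mM DTT, 0.00005% Triton X-100. Reaction started with 2 uM Z-FR-AMC; AMC fluorescence increase over 60 s gives rate.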
RE007 growth inh: qHTS Assay for Inhibitors of the HIV-1 protein Vpr | S. pombe RE007 Vpr strain, BacTiter-Glo ATP luminescence, 24 h; control for the full effect not named in the record | Potency, µM (series often up to 92.2 µM), for the others: top-dose activity change, negative = less growth | 360,000 tested, 0.21% active | AID 651644, 2012; active = well fitted falling curve with a large enough effect; inconclusive = small, poorly fitted or top-dose-only effect; inactive = no such curve, though single readings can be large or run the other way;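 note: % is set by controls: 0 for no effect and ±100 for the full control effect; nearly all actives have a fitted effect of over 50% in size; the assay follows cell death caused by Vpr and the record does not say whether a fall means rescue or toxicity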
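Fission yeast strain RE007, carrying one chromosomally integrated HIV-1 vpr copy, was seeded at OD 0.01 in PMG+AL medium with 23 nL pinned compound. After 24 h at 30 °C and 99% humidity, viability was read by BacTiter-Glo luminescence.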
LASV entry inh: qHTS for Inhibitors of binding or entry into cells for Lassa Virus; 300,000 tested, 1.2% active; Lassa virus pseudotype entry inhibition, cell reporter; control for the full effect not named in the record; Potency, µM (top dose mostly 37.9 µM), inactives show at the highest dose activity change, negative = inhibition, usual class: inhibitors; active means well fitted inhibition curve with a large enough effect; inconclusive means small, poorly fitted or top-dose-only effect, or effect the other way; inactive means flat fitted curve, though single readings scatter; tested in HEK293 cells; note: % is set by controls: 0 for no effect and ±100 for the full control effect; nearly all actives have a fitted effect of over 50% in size; luciferase read-out
NS1 inh: qHTS Assay for Inhibitors of Influenza NS1 Protein Function; S. cerevisiae slowed by influenza A NS1, growth recovery by OD600; Potency, µM (series often up to 46.1 µM), without a hit: at the top dose activity, positive = more growth; 270,000 tested, 0.4% active; AID 2326, 2010; note: actives are rising curves; nearly all actives have a fitted effect of over 50% in size
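In this qHTS, NS1 from influenza A is expressed in budding yeast, where it slows growth. Cells are switched from glucose to 2% galactose medium (pH 6.0, -URA), treated with compound, and growth recovery is read at OD600.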
* = called active by the depositor; ? = inconclusive; . = no result given; & = joins results of further samples; [ ] = another dose, or the depositor's remark. Unless noted, calls come from the whole dose curve; as a rule, active means well fitted rising curve with a large enough effect; inconclusive means small, poorly fitted or top-dose-only effect; inactive means no such curve, though single readings can be large or run the other way. Potency is the fitted concentration of half-maximal effect.

SMILES	Cruzain Triton	SARS PLP yeast	StopGo reporter	Marburg entry inh	Cruzain inh noDet	RE007 growth inh	LASV entry inh	NS1 inh
COc1ccc(NC2CCCN(C(=O)CCc3ccccc3F)C2)cc1 (centres undefined)	.	3%	-8%	.	.	-20%	.	-2%
CCOc1ccc(NC(=O)N2CCN(S(=O)(=O)c3ccc4c(ccn4C)c3)CC2)cc1	-3.3%	.	-9%	.	-28%	.	-5%[46.1 µM]	.
CCOc1ncnc2c1oc1nc(CC(C)C)c3c(c12)CC(C)(C)OC3	0.5%	7%	-2%	-13%	?	2%	-3%	-1%
NC(=O)c1ccsc1NC(=O)COC(=O)/C=C/c1ccc([N+](=O)[O-])cc1	.	1%	6%	28%	.	-12%	-17%	4%
O=C(CSc1nc(=O)n2ccccc2n1)N1N=C(c2cccs2)CC1c1ccc(F)cc1 (centres undefined)	.	-4%	-24%	?	.	-2%	7%	.
CC(=O)c1ccccc1OC(=O)CCN1C(=O)C2C3C=CC(C4CC34)C2C1=O (centres undefined)	.	2%	-20%	.	.	-10%	.	-30%
N#C/C(=C/c1ccc(O)c(O)c1)C(=O)NCc1ccc(Cl)cc1	.	0%	-12%	-28%[46.1 µM]	.	-4%	?	7%
CC(=O)Nc1nc(C)c(Oc2cccc(C(F)(F)F)c2)c(=O)[nH]1	.	0%	19%	-13%[46.1 µM]	.	4%	-4%	-1%
COc1ccccc1CNCc1cc(OC)c(OC)cc1OC	7.1%	1%	-1%	-5%	-2%	16%	0%	-1%
N=c1c2c3c(sc2ncn1N)CCCCC3	6.8%	-10%	-19%	-26%	-6%	-5%[3.69 µM]	2%	0%
COC(=O)c1ccccc1NC(=O)C1=CC(c2ccc(C)cc2)=NS(=O)(=O)N1C	-3.9%	.	-2%	?	?	.	?	.
CS(=O)(=O)Nc1cccc(C2=NN(C(=O)c3ccccc3)C(c3cccs3)C2)c1 (centres undefined)	.	-7%	0%	.	.	2%	.	3%
Cc1cc(Cl)cc(Cl)c1OCCN1CCCC1	.	-5%	-7%	.	.	-2%	.	-5%
Cn1c(O)c(C=Nc2ccc3c(c2)CCC3)c(=O)n(C)c1=O	-11%	1%	30%	23%	-14%	4%	16%	-12%
C=CC[n+]1c(-c2ccccc2)csc1NC(C)(C)C	.	1%	-17%	?	.	-7%	1%[46.1 µM]	.
CCOc1ccc(C2N(c3cc(C)on3)C(=O)C3CCCN32)cc1OC (centres undefined)	0.4%	9%	-1%	-7%	0%	-22%	-2%	6%
CC1(C)Cc2c(cnn2-c2ccc(F)cc2)C(NC(=O)CCN2CCCC2=O)C1 (centres undefined)	.	-3%	17%	.	.	4%	.	-3%
CCN(CC)S(=O)(=O)c1ccc(C(=O)NCCSc2c(-c3ccc(C)cc3)[nH]c3ccccc23)cc1	-0.9%	.	-19%	?	25µM*	.	?	.
CCNC(=O)N1C(=O)C2(OCCO2)c2ccccc21	5.0%	-9%	-10%	32%	-12%	20%	1%	-1%
Cc1cccc2sc(N(CCN(C)C)C(=O)C3CCN(S(=O)(=O)c4cccs4)CC3)nc12	.	0%	?	-2%	.	10%	11%	.
CCN(C(=O)c1cc2c(=O)oc3ccccc3c2s1)c1ccccc1F	0.0%	.	-8%	.	-8%	.	4%[46.1 µM]	.
COc1ccc(NC(=O)c2sc(SCc3ccccc3)nc2N)cc1	-6.4%	-3%	-7%	-2%	1%	-21%	?	13%
CC1(NC(=O)Cn2cc(C(F)(F)F)ccc2=O)CCS(=O)(=O)C1 (centres undefined)	.	-6%	-13%	?	.	0%	15%	.
Cc1cc2nccnc2cc1C	.	.	26%	2%[46.1 µM]	.	2%	14%[46.1 µM]	.
CC(=O)Nc1ccc(S(=O)(=O)N2CCN(C(=O)N3CCOCC3)CC2)cc1	2.0%	1%	-23%	16%	2%	-2%	-15%	5%
CCN(CC)CCNS(=O)(=O)c1ccc(Cl)cc1	5.2%	2%	-18%	10%	-7%	-6%	-19%	2%
CC(C)CNC(=S)NC(=O)c1ccc([N+](=O)[O-])cc1	0.9%	11%	19%	?	-2%	0%	1%	0%
Nc1nc(SCc2ccccc2)c2ncn(C3OC(CO)C(O)C3O)c2n1 (centres undefined)	.	.	8%	0%[46.1 µM]	.	-15%	8%[46.1 µM]	.
Cc1coc2c(C)c3oc(=O)c(CCC(=O)NCCC(=O)O)c(C)c3cc12	.	-3%	-10%	4%[46.1 µM]	.	16%	13%[46.1 µM]	8%
COc1ccc(Nc2nc3c(C)cccc3cc2C#N)cc1	.	0%	-4%	-7%[46.1 µM]	.	-3%	14%	-2%
CC(NC(=O)c1ccc(C(C)(C)C)cc1)C(=O)O (centres undefined)	2.5%	2%	8%	-3%	7%	-9%	?	1%
COCCNc1ncnc2c1c(-c1ccccc1)cn2-c1cccc(Cl)c1	-1.6%	.	-17%	.	?	.	?	.
Cc1ccc2[nH]c(=O)c(CN(C)C(=O)c3cccs3)cc2c1	.	0%	26%	?	.	-7%	-1%	.
CC(=O)Oc1ccc2occ(C(=O)c3ccccc3)c2c1	.	.	0%	?	.	?	6%[46.1 µM]	.
O=C(NC(=S)Nc1ccccc1)c1ccc(Br)o1	.	1%	67%[activator]	.	.	9%	.	3%
CCOC(=O)N1CCN(C(=O)COC(=O)c2cc(Cl)c(O)c(Cl)c2)CC1	.	-1%	0%	6%[46.1 µM]	.	8%	-20%	.

Three compounds from above, limited to StopGo reporter and NS1 inh:
| canonical_smiles | StopGo reporter | NS1 inh |
| --- | --- | --- |
| CCN(CC)CCNS(=O)(=O)c1ccc(Cl)cc1 | -18% | 2% |
| CCOC(=O)N1CCN(C(=O)COC(=O)c2cc(Cl)c(O)c(Cl)c2)CC1 | 0% | . |
| Cc1ccc2[nH]c(=O)c(CN(C)C(=O)c3cccs3)cc2c1 | 26% | . |

Next part.
SMILES	Cruzain Triton	SARS PLP yeast	StopGo reporter	Marburg entry inh	Cruzain inh noDet	RE007 growth inh	LASV entry inh	NS1 inh
Cc1csc(NC(=O)c2cc(C)nc3ccccc23)n1	.	0%	-29%	2%[46.1 µM]	.	-2%	-7%	.
COc1ccc(NC(=O)c2ccco2)cc1NC(=O)c1cccs1	-1.3%	-4%	-10%	-3%	-3%	-11%	22%	-22%
CCn1cc(C(=O)OCC(=O)N(C)Cc2ccccc2)c(=O)c2ccc(C)nc21	.	-2%	10%	8%[46.1 µM]	.	-16%	.	.
Cc1cccc(NC(=O)c2ccc(-n3cccn3)c([N+](=O)[O-])c2)c1	-4.4%	-1%	-13%	16%	-12%	-21%	19%	2%
Cc1ccc(OCCSc2nc3ccc(NC(=O)COc4ccc(C)cc4)cc3s2)cc1	-1.0%	.	-5%	?	-7%	.	6%[46.1 µM]	.
COc1ccc2c(c1)C1NC(=S)N[C@@](C)(O2)C1C(=O)Nc1ccccc1 (some centres undefined)	-0.7%	1%	-17%	2%	-9%	-4%	2%	18%
O=C1c2ccccc2C(=O)N1CCc1nc(-c2ccccn2)no1	1.2%	-4%	21%	?	-9%	3%	5%	-17%
COc1ccc(C(=O)C2CCCN(C(=O)c3ccnn3C)C2)c(C)c1 (centres undefined)	.	3%	-10%	-18%	.	7%	-22%	-1%
Cc1ccc(C2/C(=C(\O)c3ccc4c(c3)OCCO4)C(=O)C(=O)N2CCCN(C)C)o1 (centres undefined)	6.4%	-3%	.	-5%	-3%	.	.	2%
O=C(O)CCCCCN=C1CCc2ccccc2N1	-1.7%	7%	-13%	0%&-2%	-6%	11%	2%	?
CCN(c1ccccc1)S(=O)(=O)c1nnc(NC(=O)COc2ccccc2F)s1	-1.0%	.	-17%	.	8%	.	0%[46.1 µM]	.
N#Cc1cccc(CN2CCC(=O)N([C@H](CO)Cc3ccccc3)CC2)c1	.	8%	2%	.	.	6%	.	3%
Cc1ccc(NC(=O)CC2SC(=NC3CCCCC3)NC2=O)cc1 (centres undefined)	-4.0%	2%	-11%	-20%	1%	-1%	?	-10%
CN(C)/C=C1\N=C(c2ccc3c(c2)OCO3)OC1=O	-15%	-21%	47%[activator]	?	-10%	-1%	-1%	-11%
O=c1[nH][nH]c(C(F)(F)F)c1C=Nc1ccc(Cl)cc1	2.1%	1%	-5%	?	-6%	0%	26%	-1%
COc1ccc(NC(=O)Cn2nc(-c3ccncc3)ccc2=O)cc1Cl	0.1%	.	2%	.	-6%	.	0%[46.1 µM]	.
CC1CCc2c(sc3ncnc(SCC(=O)Nc4ccc(C(=O)O)cc4)c23)C1 (centres undefined)	.	1%	11%	23%[46.1 µM]	.	-5%	.	5%
COc1ccccc1N1CCN(C(=O)CCC(=O)Nc2nnc(C(C)C)s2)CC1	.	-4%	-12%	-16%[46.1 µM]	.	-2%	15%[46.1 µM]	-5%
Cc1cc(-c2ccccc2)nc(N/N=C/c2ccccc2)n1	.	-1%	7%	?	.	?	?	-14%

Record cards, from the list above. Values in the order: Cruzain Triton, SARS PLP yeast, StopGo reporter, Marburg entry inh, Cruzain inh noDet, RE007 growth inh, LASV entry inh, NS1 inh
`CN(C)/C=C1\N=C(c2ccc3c(c2)OCO3)OC1=O` across the screens: -15%, -21%, 47%[activator], ?, -10%, -1%, -1%, -11%
`COc1ccccc1N1CCN(C(=O)CCC(=O)Nc2nnc(C(C)C)s2)CC1` across the screens: ., -4%, -12%, -16%[46.1 µM], ., -2%, 15%[46.1 µM], -5%
`O=c1[nH][nH]c(C(F)(F)F)c1C=Nc1ccc(Cl)cc1` across the screens: 2.1%, 1%, -5%, ?, -6%, 0%, 26%, -1%
`Cc1cc(-c2ccccc2)nc(N/N=C/c2ccccc2)n1` across the screens: ., -1%, 7%, ?, ., ?, ?, -14%
